# PV pol inh: inhibitors of poliovirus RNA polymerase binding and polymerization; % elongation, % (compound at 16.7 µg/mL); poliovirus polymerase elongation, fluorescence polarization; hits give low values; 0.66% of 150,000 active; P03300; in the data active means % elongation below about 90%; further: some results filed as inactive read as strong as hits
# Target sequence (P03300 1749-2209 limits assumed): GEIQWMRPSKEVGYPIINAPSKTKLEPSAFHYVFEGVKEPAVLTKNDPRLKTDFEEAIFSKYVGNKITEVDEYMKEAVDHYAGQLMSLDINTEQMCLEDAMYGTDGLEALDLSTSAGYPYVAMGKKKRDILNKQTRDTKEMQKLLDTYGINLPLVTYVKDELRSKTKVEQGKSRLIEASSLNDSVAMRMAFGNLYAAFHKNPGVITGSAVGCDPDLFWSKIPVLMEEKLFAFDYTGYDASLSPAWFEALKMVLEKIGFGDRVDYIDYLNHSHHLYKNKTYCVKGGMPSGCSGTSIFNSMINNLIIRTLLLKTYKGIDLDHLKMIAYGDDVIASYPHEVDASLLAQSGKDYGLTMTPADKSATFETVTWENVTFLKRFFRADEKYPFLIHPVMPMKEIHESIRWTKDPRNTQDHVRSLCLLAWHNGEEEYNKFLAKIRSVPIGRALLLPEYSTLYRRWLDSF
# MbtI inh: MbtI salicylate synthase inhibition; P9WFX0; purified MbtI enzyme, fluorescence intensity read-out; inhibition, %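 (about 17 µg/mL by stock and volumes)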; 0.89% of 100,000 active; AID 493033;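 active means above 50% in both replicates, above 80% if mildly self-fluorescent; inactive means the rest, strongly fluorescent compounds included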;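 further: 0% = mean of negative and 100% = mean of positive controls; one replicate is shown; some compounds called inactive have numbers as strong as hits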
# Target sequence (P9WFX0 whole entry, looked up): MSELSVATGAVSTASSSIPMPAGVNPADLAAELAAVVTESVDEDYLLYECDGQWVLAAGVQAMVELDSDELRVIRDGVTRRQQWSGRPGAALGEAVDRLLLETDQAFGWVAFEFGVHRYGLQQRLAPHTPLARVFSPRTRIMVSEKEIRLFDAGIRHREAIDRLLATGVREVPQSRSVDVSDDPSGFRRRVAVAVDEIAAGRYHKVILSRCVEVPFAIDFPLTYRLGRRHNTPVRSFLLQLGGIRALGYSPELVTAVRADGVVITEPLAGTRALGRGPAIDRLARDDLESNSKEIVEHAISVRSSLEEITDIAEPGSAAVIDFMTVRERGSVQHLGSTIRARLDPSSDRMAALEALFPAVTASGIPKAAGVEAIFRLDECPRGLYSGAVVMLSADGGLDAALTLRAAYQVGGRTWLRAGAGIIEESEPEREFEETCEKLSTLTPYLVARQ
# MenB inh: inhibitors of Mycobacterium tuberculosis MenB enzyme; MenB enzyme assay, absorbance read-out; some hits fall short of the stated cut; inhibition, %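 (about 12 µg/mL by stock and volumes)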; 0.43% of 100,000 active; AID 540299;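 active means mean of two replicates above 30%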;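 further: 0% = no compound and 100% = wells with inactive enzyme; the first replicate is given; strong numbers were not always called active; inactives centre near -10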
# PV pol inh intensity: second read-out of PV pol inh, no call of its own (marks repeat the call); % elongation; measured here: total intensity read-out; formula for this scale not given here;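 total fluorescence in place of polarization; lower means less elongation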
# Starred values were filed as active, the others as inactive; x = no result given.
# Codes: A = PV pol inh; B = PV pol inh intensity; C = MbtI inh; D = MenB inh
CCc1cc(C(=O)O)c(SSc2sc(CC)cc2C(=O)O)s1
  A: 76.0*	B: 70.0*	C: 102.4*	D: -19.4
COc1cccc(CSc2nc3ccncc3n2CC(=O)NCC2CCCO2)c1 (configuration not stated)
  A: 100.0	B: 102.0	C: 11.8	D: 7.7
CC1(C)Nc2ccccc2-c2nc3ccccc3n21
  A: 101.0	B: 101.0	C: 117.1	D: 5.6
Cc1cc(/C(O)=C2\C(=O)C(=O)N(CCN(C)C)C2c2ccncc2)ccc1OCC(C)C (configuration not stated)
  A: 100.0	B: 102.0	C: 2.5	D: -13.3
Cc1cccc2c1-c1sc(C(=O)n3c(C)cc4ccccc43)cc1CO2
  A: 104.0	B: 101.0	C: 106.5	D: 6.2
Cc1ccc(CSc2nnc(-c3ccc4c(c3)OCO4)o2)cc1
  A: 107.0	B: 110.0	C: 13.6	D: -8.1
C=CCn1cc(/C=C(/C#N)c2ccc(F)cc2)c2ccccc21
  A: 100.0	B: 105.0	C: -9.1	D: -31.0
CC(=O)OC[C@H]1O[C@@H](N2CCCCC2)[C@H](OC(C)=O)[C@@H](OC(C)=O)[C@@H]1OC(C)=O
  A: 102.0	B: 99.0	C: 1.1	D: 6.7
N=C1SC2CS(=O)(=O)CC2N1Cc1ccccc1 (configuration not stated)
  A: 102.0	B: 107.0	C: -7.1	D: -0.9
CCCCn1c(SCC(=O)c2ccccc2)nc2ccsc2c1=O
  A: 101.0	B: 106.0	C: -7.3	D: -4.3
Cc1cc2nc(N3CCOCC3)c3ccccc3n2n1
  A: 102.0	B: 96.0	C: 57.6	D: -24.6
C=CCOC(=O)C1CC=CCC1C(=O)Nc1ccc(NC(C)=O)cc1 (configuration not stated)
  A: 104.0	B: 109.0	C: x	D: -14.6
CC(C)c1c(CN(C)C(C)Cc2ccccc2)n(C)n(-c2ccccc2)c1=O (configuration not stated)
  A: 101.0	B: 102.0	C: -9.8	D: -11.1
CCOC(=O)c1c(-c2ccc(Br)cc2)csc1/N=C/C1C(=O)NC(=S)NC1=O
  A: 102.0	B: 115.0	C: 54.9	D: -24.5
CCOc1ccccc1NC(=O)N1CCCC(c2nnc(SC)n2C)C1 (configuration not stated)
  A: 99.0	B: 101.0	C: -6.0	D: 7.8
O=C(Nc1ccc(S(=O)(=O)N2CCCCC2)cc1)c1cc(=O)c2ccccc2o1
  A: 101.0	B: 102.0	C: 14.1	D: -22.1
OC1(C(F)(F)F)CSC(Cc2ccccc2)=N1 (configuration not stated)
  A: 103.0	B: 98.0	C: 11.2	D: x
O=C(CCc1nnc2n(Cc3ccccc3)c(=O)c3ccccc3n12)NCCCN1CCCCC1
  A: 103.0	B: 102.0	C: 5.7	D: 11.5
O=C(NC(=O)C12CC3CC(CC(C3)C1)C2)Nc1ccc(Cl)cc1
  A: 105.0	B: 101.0	C: -12.1	D: -1.5
N#CC1C(N)=Nn2c(nnc2C(F)(F)F)SC12C(=O)Nc1ccccc12 (configuration not stated)
  A: 94.0	B: 236.0	C: x	D: -24.3
Cc1ccccc1Nc1nc(N)nc(CN(C)S(=O)(=O)c2cccs2)n1
  A: 111.0	B: 116.0	C: -5.2	D: 6.8
O=C(/C=C/c1cccs1)Nc1ccccc1
  A: 98.0	B: 102.0	C: 39.1	D: -6.8
O=C1/C(=C\c2ccco2)N2CCC1CC2
  A: 97.0	B: 113.0	C: 22.6	D: 3.1
CCCN(CCC)c1nc(N2CCCCC2)c2nc(N(CCC)CCC)nc(N3CCCCC3)c2n1
  A: 83.0	B: 126.0	C: x	D: -18.5
CCOC(Cc1nnc(SCC(=O)c2ccccc2)n1C)OCC
  A: 103.0	B: 93.0	C: 3.9	D: -15.4
CCCn1c2ccccc2c2cnn(CC(=O)N(CC)CC)c(=O)c21
  A: 103.0	B: 102.0	C: 111.1	D: 1.5
COc1ccc(C(=O)CSc2n[nH]c(=O)[nH]c2=O)cc1
  A: 96.0	B: 99.0	C: 3.8	D: -3.7
CC(=Nc1c2c(nc3ccccc13)N(C)CC2)N(C)C
  A: 101.0	B: 103.0	C: 6.1	D: 15.6
O=C(CSc1ccccn1)Nc1ccc2ccccc2c1
  A: 100.0	B: 101.0	C: 68.5	D: x
CC1(c2cccs2)CC(c2cccs2)=Nc2ccccc2N1 (configuration not stated)
  A: 103.0	B: 100.0	C: 3.6	D: -44.4
Cc1ccc2c(c1)C1CN(C)CCC1N2 (configuration not stated)
  A: 95.0	B: 106.0	C: -13.2	D: 3.0
N#Cc1ccccc1COc1ncnc2c1cnn2-c1ccccc1
  A: 106.0	B: 101.0	C: 1.2	D: -19.4
COC(=O)C(C)Sc1nnc(-c2ccc(OC)cc2)n1-c1ccccc1 (configuration not stated)
  A: 101.0	B: 92.0	C: -7.7	D: -15.2
CCCn1c(=O)n(C)c(=O)c2c(SCC3CCCCO3)nc(CC(C)C)nc21 (configuration not stated)
  A: 102.0	B: 109.0	C: -6.2	D: -15.0
CN1c2ccc(Cl)cc2C(=O)NC1c1ccc(C#N)cc1 (configuration not stated)
  A: 109.0	B: 117.0	C: -24.6	D: -6.8
CC(=O)Nc1ccc(S(=O)(=O)NNC(=S)NCc2ccco2)cc1
  A: 100.0	B: 102.0	C: -8.8	D: -23.5
Cc1nc(C2COc3ccccc3O2)ncc1S(=O)(=O)c1ccc(Cl)cc1 (configuration not stated)
  A: 100.0	B: 95.0	C: 6.2	D: 1.5
O=C(c1cc2cc(Cl)cc(Cl)c2oc1=O)N1CCCCC1
  A: 102.0	B: 103.0	C: -17.1	D: -27.1
O=C1CN(C(=O)CCC(=O)c2ccc(F)cc2)c2ccccc2N1
  A: 104.0	B: 107.0	C: -4.1	D: x
O=C(Cn1cc2c(n1)CCCCC2)N1CCCCC1
  A: 102.0	B: 98.0	C: -11.6	D: 1.2
CC(NC(=O)c1ncn[nH]1)c1ccc(-c2ccccc2)cc1 (configuration not stated)
  A: 100.0	B: 103.0	C: x	D: -25.6
Cc1ccc(C(=O)C2CCN(C(=O)Cc3ccccc3)CC2)cc1
  A: 100.0	B: 102.0	C: -4.5	D: -5.4
Cn1c(=NC(=O)c2ccc(S(C)(=O)=O)cc2)sc2ccccc21
  A: 103.0	B: 107.0	C: -10.2	D: -16.6
CCN(C(=O)Nc1cccc(Cl)c1)c1ccccc1
  A: 100.0	B: 103.0	C: -7.2	D: -12.9
C=CCSC1=C(C#N)C(c2ccc(C)cc2)C(C(=O)OC)C(=O)N1 (configuration not stated)
  A: 103.0	B: 103.0	C: 5.3	D: -21.9
CC(Oc1ccc(Oc2ccccc2)cc1)C(=O)NC1CC1 (configuration not stated)
  A: 104.0	B: 105.0	C: -6.0	D: 6.8
O=C(O)c1cccc(OCCN2CCCC2=O)c1
  A: 102.0	B: 103.0	C: -7.3	D: -2.1
COc1ccc(N2Cc3cccc(C(=O)NCCCN4CCN(c5cccc(Cl)c5)CC4)c3C2=O)cc1
  A: 104.0	B: 102.0	C: -8.4	D: 5.7
C=CCN(CC=C)S(=O)(=O)c1ccc(NC(=O)C2CCCCC2C(=O)O)cc1 (configuration not stated)
  A: 99.0	B: 101.0	C: -7.1	D: -17.0
O=C(O)CNC(=O)C(c1ccccc1)c1ccccc1
  A: 102.0	B: 102.0	C: -12.3	D: x
COC(OC)c1ccc(C#N)c(SCc2ccc(Cl)cc2)n1
  A: 100.0	B: 107.0	C: -5.3	D: 4.4
Clc1ccc(Nc2nnns2)cc1
  A: 98.0	B: 95.0	C: 58.8*	D: -2.6
CCn1c(O)c(C=NCCCCCc2nc(-c3ccc(C)cc3)no2)c(=O)n(CC)c1=S
  A: 103.0	B: 98.0	C: 0.6	D: -41.6
COc1cccc(-n2cc(C(=O)N3C(C)CCCC3C)c3ccccc3c2=O)c1 (configuration not stated)
  A: 102.0	B: 103.0	C: 10.4	D: -7.7
Fc1ccc(COc2cn(-c3ccccc3)nn2)cc1
  A: 101.0	B: 100.0	C: 7.2	D: -9.7
Cc1cc(C=C2C(=O)OC(C)(C(C)(C)C)OC2=O)c(C)n1-c1ccccc1 (configuration not stated)
  A: 101.0	B: 101.0	C: x	D: -11.3
COc1ccc2c(c1)c(CC(=O)OCc1ccccn1)c(C)n2C(=O)c1ccc(Cl)cc1
  A: 103.0	B: 95.0	C: 5.8	D: -32.7
CCn1c(-c2nonc2NC(C)=O)n[nH]c1=S
  A: 102.0	B: 102.0	C: 65.3*	D: -6.3
CC1CS/C(=C(/C(=O)O)C(=O)/C=C/c2cccc(O)c2)S1 (configuration not stated)
  A: 103.0	B: 114.0	C: x	D: -90.4
FC(F)(F)c1cccc(NCc2cn3ccccc3n2)c1
  A: 107.0	B: 101.0	C: x	D: -12.0

# Other entries follow:
# Codes: A = PV pol inh; B = PV pol inh intensity; C = MbtI inh; D = MenB inh
CC1CN(C(=O)COc2ncnc3c2cnn3-c2ccccc2)CC(C)O1 (configuration not stated)
  A: 107.0	B: 107.0	C: 10.1	D: -6.2
N#Cc1c(N)nc(SCc2ccccc2)c(C#N)c1C1CCCCC1
  A: 105.0	B: 109.0	C: -30.0	D: -32.5
COc1cccc2c(=O)c(C(=O)NCc3cccs3)c[nH]c12
  A: 100.0	B: 93.0	C: 89.7	D: 15.1
O=C(O)c1cccc(-c2nc3ccccc3[nH]2)c1
  A: 102.0	B: 97.0	C: 83.7	D: x
Clc1c(-c2nnco2)sc2ccccc12
  A: 100.0	B: 107.0	C: 4.8	D: x
Cc1nn(-c2ccccc2)c(OC(=O)c2ccc(Br)o2)c1Sc1ccccc1
  A: 98.0	B: 100.0	C: 26.2	D: -14.9
Nc1ccc(CCC(=O)N2CCCC2)cc1
  A: 99.0	B: 102.0	C: -8.4	D: -24.1
NS(=O)(=O)c1ccc(CCNC(=O)c2c(-n3cccc3)sc3c2CCCC3)cc1
  A: 107.0	B: 112.0	C: 2.2	D: -5.5
CCOC(=O)Cc1csc(CC(N)=O)n1
  A: 101.0	B: 101.0	C: -0.9	D: 4.1
COc1ccc(C2CC(c3ccccc3)=NN2C(=O)CSc2nc(N)c(C#N)cc2C#N)cc1 (configuration not stated)
  A: 146.0	B: 154.0	C: -55.0	D: -12.1
O=C(O)CN1C(=O)c2cccc3c(Cl)cc(Cl)c1c23
  A: 101.0	B: 104.0	C: 0.7	D: x
CC(C)NC(=O)c1ccc2c(=O)n(Cc3ccco3)c(=S)[nH]c2c1
  A: 104.0	B: 98.0	C: 0.4	D: -36.6
Nc1ccc(S(=O)(=O)NCc2ccncc2)cc1
  A: 100.0	B: 98.0	C: -6.8	D: -148.4
C#CCN1CCCC2(CCOC(C)(CC)C2)C1 (configuration not stated)
  A: 100.0	B: 102.0	C: 10.4	D: -1.3
C=CC[n+]1cccnc1N
  A: 99.0	B: 109.0	C: -6.2	D: x

# Reformatted field by field: part of the list above.
mol: Cc1nn(-c2ccccc2)c(OC(=O)c2ccc(Br)o2)c1Sc1ccccc1
- PV pol inh: 98.0
- PV pol inh intensity: 100.0
- MbtI inh: 26.2
- MenB inh: -14.9

mol: Nc1ccc(CCC(=O)N2CCCC2)cc1
- PV pol inh: 99.0
- PV pol inh intensity: 102.0
- MbtI inh: -8.4
- MenB inh: -24.1

mol: NS(=O)(=O)c1ccc(CCNC(=O)c2c(-n3cccc3)sc3c2CCCC3)cc1
- PV pol inh: 107.0
- PV pol inh intensity: 112.0
- MbtI inh: 2.2
- MenB inh: -5.5

mol: CCOC(=O)Cc1csc(CC(N)=O)n1
- PV pol inh: 101.0
- PV pol inh intensity: 101.0
- MbtI inh: -0.9
- MenB inh: 4.1

# Next part:
# Codes: A = PV pol inh; B = PV pol inh intensity; C = MbtI inh; D = MenB inh
Cc1nc2nc(CNC(=O)OC(C)(C)C)nn2c(C)c1CCC(=O)Nc1ccc(F)cc1
  A: 102.0	B: 102.0	C: -9.1	D: 2.9
O=C(/C=C/c1ccco1)N(Cc1ccccc1)c1ccccc1
  A: x	B: x	C: -6.3	D: -14.6
O=S(=O)(NC1c2ccccc2Oc2ccccc21)c1cccs1
  A: 103.0	B: 107.0	C: 6.9	D: -30.5
Cc1cc2occ(CC(=O)OCc3cc(=O)n4c(n3)sc3ccccc34)c2cc1C
  A: 105.0	B: 112.0	C: -10.8	D: -13.7
CC/C(=N\NC(=O)c1ccc(N)cc1)c1ccc(Cl)cc1
  A: 104.0	B: 103.0	C: 9.9	D: 4.8
Cc1nc2ccc(NC(=O)C3CCCCC3)cc2c(=O)n1Cc1ccccc1
  A: 101.0	B: 102.0	C: 13.5	D: -14.6
Cc1ccc2nc(/N=C/c3ccc(Cl)cc3Cl)sc2c1
  A: 102.0	B: 108.0	C: x	D: -8.3
COc1ccc(C(C)(O)C(CN2CCOCC2)c2ccccc2)cc1 (configuration not stated)
  A: 100.0	B: 101.0	C: -13.9	D: 13.6
C1CN(C(N2CCOCC2)N2CCOCC2)CCO1
  A: 105.0	B: 102.0	C: -15.3	D: -32.3
COc1ccccc1CNC(=O)c1cc2sc(Cl)cc2n1C
  A: 99.0	B: 98.0	C: -4.3	D: -32.9
O=C(Nc1cc(C(F)(F)F)ccc1N1CCCCC1)c1cc[n+]([O-])cc1
  A: 104.0	B: 103.0	C: -5.3	D: x
FC(F)(F)c1cccc(NN=C2C3CC4CC(C3)CC2C4)n1
  A: 101.0	B: 95.0	C: -4.3	D: -22.0
O=C(CSc1nnc2sc3ccccc3n12)NC1CCCC1
  A: 102.0	B: 102.0	C: 9.1	D: -10.3
CCOc1ccc(NC(=O)CN(C)c2ccc(S(=O)(=O)N3CCN(C)CC3)cn2)cc1OCC
  A: 104.0	B: 99.0	C: 2.4	D: 10.5
CCOC(=O)C1CCN(c2ncnc3c2cnn3-c2ccccc2)CC1
  A: 106.0	B: 109.0	C: x	D: -15.2
N#CC(C#N)=Cc1cccc(OC(F)F)c1
  A: 110.0	B: 115.0	C: 1.4	D: -33.4
